# Screening results as filed in PubChem.
# PMP22 txn prim – PMP22 gene transcription modulation. S16 Pmp22-F2sN Schwann cells (luciferase reporters placed in the Pmp22 gene), FLuc/NLuc coincidence luminescence, 24 h. Potency, µM (highest dose often 57.5 µM), for inactives: at the top dose activity change, negative = inhibition, usual class: inhibitors. 2% of 43,000 active. AID 1508649; active = clear falling dose curves in both reporters; inconclusive = both reporters move, but less clearly or upward; inactive = either reporter flat; the % is the NLuc reporter signal; also: % is scaled to controls: 0 for no effect and ±100 for the full control effect; some results filed as inactive show a strong effect at the top dose
#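 S16(c9) Schwann cells with FLuc/NLuc coincidence reporter in the Pmp22 3' UTR; compounds pin-transferred, 24 h at 37C. Dual-luciferase read: FLuc first, then NLuc after Stop&Glo, each 10 min at room temperature.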
# HTT prom inh – HTT promoter inhibition; HEK293 HTT promoter firefly luciferase reporter (activity 0% = vehicle and -100% = no light), 24 h; Potency, µM (highest dose often 57.5 µM), for inactives: at the top dose activity change, negative = inhibition, most hits filed as inhibitors; 0.93% of 48,000 active; active = well fitted inhibition curve with a large enough effect; inconclusive = small, poorly fitted or top-dose-only effect; inactive = no such curve, though single readings can be large or run the other way; also: nearly all actives have a fitted effect of over 50% in size
#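 Quantitative HTS used concentration series of up to 57.5 uM final on HEK293 luciferase reporter cells, 24 h at 37 degrees C. Readout was Dual-Glo firefly luminescence.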
# * hit, by the source's call; ? = inconclusive; nt = not tested or not shown; & = joins results of further samples; [ ] = remark or other dose. Potency is read from the fitted curve at half-maximal effect.
SMILES	HTT prom inh	PMP22 txn prim
CC(C)NC(=O)C(c1ccccc1)N1Cc2ccccc2C1=O (centres undefined)	-19%	8%
COC(=O)c1ccc(Cl)cc1NC(=O)Nc1nnc(N(C)C2CCCCC2)s1	-8%	-1%
Cc1nnc(NC(=O)C(=O)c2cc(C)n(-c3ccc(C)c(C)c3)c2C)s1	-20%	2.9µM*
Cc1cccc(N2CCN(c3ccc(C(=O)O)cc3NC(=O)c3cccc(Cl)c3)CC2C)c1 (centres undefined)	-4%	?
COc1cccc(CNC(=O)c2sc3nc(C)cc(C)c3c2-n2cccc2)c1OC	-17%	?
COc1ccc(CNC(=O)C(CC(C)C)N2Cc3ccccc3C2=O)cc1 (centres undefined)	-12%	0%
CCN(CC)CCNC(=O)c1cn(CC)c2ccc(S(=O)(=O)N(C)C3CCCCC3)cc2c1=O	-8%	?
Cc1c(Cl)cccc1-n1nnc(-c2nc(-c3ccc4c(c3)OCO4)no2)c1C	48%[activator]	-1%
COc1cccc(C(=O)Nc2ccc(NC(=O)c3ccc(C(C)(C)C)cc3)cc2)c1	-14%	-1%
Cc1cc(F)ccc1NC(=O)C1CCCN(c2nnc(-n3c(C)ccc3C)s2)C1 (centres undefined)	-29%	?

# (next part)
SMILES	HTT prom inh	PMP22 txn prim
C#CCSc1nc(-c2ccccc2)cc(-c2ccccc2)c1C#N	-7%	?
Cc1ccc(CNC(=O)CSc2nc3c(sc4ccccc43)c(=O)n2CCCC(=O)NCCO)cc1	10%	?
O=C(OCc1ccccc1)c1ccc(-c2nnn(Cc3ccccc3F)n2)cc1	16%	-6%
CCOc1cccc2sc(N(Cc3cccnc3)C(C)=O)nc12	-29%	-16%
COc1ccc2nc(NC(=O)c3nc(SCc4ccc(F)cc4)ncc3Cl)sc2c1	-7%	?
CCc1cccc(NC(=O)CN2C(=O)CCc3cc(S(=O)(=O)N4CCOCC4)ccc32)c1	-23%	?
CC1=C(c2ccc(C(C)C)cc2)S(=O)(=O)N=C1N1CCN(c2ccc(F)cc2)CC1	?	-16%
O=C(CN1C(=O)CSc2ccc(S(=O)(=O)N3CCCC3)cc21)NCc1ccc(Cl)cc1	-19%	-4%
CC(C)NC(=O)c1nn(C)c2c1CS(=O)(=O)c1ccccc1-2	-1%	44%
O=C(CN1C(=O)c2cccnc2Sc2ccccc21)Nc1cc(F)ccc1F	-6%	5%

# The list continues:
SMILES	HTT prom inh	PMP22 txn prim
Cn1c(=O)c2c(nc(SCC(=O)Nc3ccc(OC(F)(F)F)cc3)n2Cc2cccc(C(F)(F)F)c2)n(C)c1=O	-24%	?
COc1ccc(C(=O)Nc2cc3c(cc2N2CCCC2)n(C)c(=O)c(=O)n3C)cc1OC	-27%	0%
Cc1ccc2c(C)c(C(=O)NCC(c3ccc(Cl)cc3)N3CCOCC3)oc2c1 (centres undefined)	?	?
COc1ccc(-c2cc(C)no2)cc1S(=O)(=O)NCc1ccc(OC(C)C)cc1	-28%	-10%
Cc1ccc(N(CC(=O)NCCc2ccccc2)S(=O)(=O)N(C)C)cc1	-2%	-11%
CC(=O)N1CCc2cc(S(=O)(=O)CCC(=O)N3CCN(c4ccccc4F)CC3)ccc21	-22%	?
COc1ccc(NC(=O)Cn2c(=O)oc3cc(S(=O)(=O)N4CCCCCC4)ccc32)cc1OC	?	3%
COc1ccc(-c2noc(-c3ccc(N4CCN(c5ccccc5OC)CC4)c([N+](=O)[O-])c3)n2)cc1	-7%	2%
CC1CCN(c2nc3c(S(=O)(=O)c4cccc(Cl)c4)nnn3c3ccsc23)CC1	-21%	?
CCn1cc(S(=O)(=O)c2cc(C)cc(C)c2)c(=O)c2cc(F)c(N3CCOCC3)cc21	-13%	-7%

# Further structures follow.
SMILES	HTT prom inh	PMP22 txn prim
O=C(NCc1nc(-c2ccccc2)no1)c1ccco1	12%	2%
O=c1cc(-c2ccccc2)nc(SCc2nc(-c3ccccc3Cl)no2)[nH]1	-2%	0%
CCCCNC(=O)[C@@H](c1ccccc1)N1Cc2ccccc2C1=O	-15%	2%
Cc1ccc(-c2onc(C)c2C)cc1S(=O)(=O)N1CCN(c2ccccc2F)CC1	-5%	15%
CCCCCCSc1nnc2c(n1)OC(C)Nc1ccc(Br)cc1-2 (centres undefined)	-32%	?
CC1=C(C(=O)Nc2ccccc2)C(c2ccc(C(=O)O)cc2)n2nc(SCC(=O)c3ccc(C)cc3)nc2N1 (centres undefined)	9%	-38%
O=C(Cn1ncc2c([nH]c3ccccc32)c1=O)Nc1cc(F)ccc1F	-5%	?
Cc1cccc(NC(=O)c2cccc(N3CCCS3(=O)=O)c2)c1	50%[activator]	?
Cc1cc(=O)n(CC(=O)Nc2cccc([N+](=O)[O-])c2)c(-n2nc(C)cc2C)n1	-22%	-5%
CCOC(=O)N1CCc2c(sc3c2c(=O)n(-c2ccc(CC)cc2)c(=O)n3CC(=O)c2ccc(F)cc2)C1	-5%	?

# (listing goes on)
SMILES	HTT prom inh	PMP22 txn prim
COc1ccnc2c1CCCCC2S(=O)c1nc2ccccc2[nH]1 (centres undefined)	18%	nt
Cc1cccc(Cn2c(SCc3ccc(C(=O)NCCc4ccccc4)cc3)nc3cccnc32)c1	-26%	?
O=S(=O)(c1ccc(Br)s1)N1CCN(c2cccc(C(F)(F)F)c2)CC1	?	8%
COc1ccc(C)cc1NC(=O)CC(=O)Nc1ccc2nc3n(c(=O)c2c1)CCCCC3	?	-43%
COCCOC(=O)C1=C(C)N=C2SCCC(=O)N2C1c1ccc(OCc2ccccc2)c(OC)c1 (centres undefined)	-7%	-19%
COc1ccc(NC(=O)CN2C(=O)COc3ccc(S(=O)(=O)Nc4ccccc4)cc32)cc1	-6%	13%
CSc1ccc(CCNC(=O)c2cc3cc(S(=O)(=O)N4CCCCC4)ccc3n2C)cc1	?	-22%
CC1CCN(C(=O)C2COc3ccccc3C2)CC1 (centres undefined)	-4%	-10%
COc1ccc(Cn2c(CO)cnc2SCC(=O)NCc2ccco2)cc1	-13%	2%
COc1ccc(-c2n[nH]c3c2cnc2ccc(F)cc23)cc1	22%	-1%

# Five records drawn at random from the list so far, as already listed:
SMILES	HTT prom inh	PMP22 txn prim
COc1ccc(C)cc1NC(=O)CC(=O)Nc1ccc2nc3n(c(=O)c2c1)CCCCC3	?	-43%
O=S(=O)(c1ccc(Br)s1)N1CCN(c2cccc(C(F)(F)F)c2)CC1	?	8%
COc1ccc(Cn2c(CO)cnc2SCC(=O)NCc2ccco2)cc1	-13%	2%
CSc1ccc(CCNC(=O)c2cc3cc(S(=O)(=O)N4CCCCC4)ccc3n2C)cc1	?	-22%
COc1ccc(-c2n[nH]c3c2cnc2ccc(F)cc23)cc1	22%	-1%

# (continued)
SMILES	HTT prom inh	PMP22 txn prim
Fc1ccc(Cn2c(-c3cccc(Br)c3)nc3ccccc32)cc1	?	?
CCOC(=O)c1c(NC(=O)c2ccc(S(=O)(=O)N3CCC(C)CC3)cc2)sc2c1CCN(C(C)C)C2	-32%	?
CCc1ccc(NC(=O)Cn2c(=O)c3cc(Cl)ccc3n3nncc23)cc1	4%	-17%
COc1cc(C2C(C(=O)OC(C)C)=C(C)N=C3SCCC(=O)N32)ccc1OCc1ccccc1 (centres undefined)	?	20µM*
COc1ccc(-c2nc3ccccc3o2)cc1NC(=O)COc1c(C)cc(Cl)cc1Cl	17%	-52%
CN(C(=O)CSc1nc2c(c(=O)[nH]1)CCCC2)c1ccccc1	-13%	?
COc1ccc(OC)c(CCNC(=O)C2=C(C)C(=O)OC23CCC(C)CC3)c1 (centres undefined)	-26%	0%
CCCCNC(=O)Cn1ncc2c(C)n(Cc3cccc(Cl)c3)c(C)c2c1=O	?	2%
Cc1nc2sc(C(=O)Nc3ccc(F)cc3)c(N)c2c(-c2ccc(Br)cc2)c1C(=O)Nc1ccc(Cl)cc1	-11%	?
CCOc1ccc(NC(=O)c2cc3c(s2)-c2ccccc2OC3)cc1	-22%	16%

# More entries:
SMILES	HTT prom inh	PMP22 txn prim
Cc1cccc(-c2nc3c4ccccc4nc(N4CCN(c5cc(C)ccc5C)CC4)n3n2)c1	-2%	-2%
COc1ccc(CCNC(=O)c2ccc3c(c2)N(Cc2ccccc2Cl)C(=O)c2ccccc2S3)cc1OC	-19%	-8%
CCOC(=O)C1CCCN(S(=O)(=O)c2cc3c4c(c2)CC(=O)N4CCC3)C1 (centres undefined)	?	?
CCOc1ccc(NC(=O)c2c(NCc3sccc3C)sc3c2CCCCC3)cc1	-22%	?
CCCc1ccc(S(=O)(=O)N2CCC(c3nnnn3-c3ccc(OC)cc3)CC2)cc1	-7%	-11%
Cc1cc(C)cc(Nc2ncnc3onc(-c4ccc(F)cc4)c23)c1	-17%	5%
COc1cc(C2CC(=O)Nc3c2c(=O)nc2c(C)cccn32)cc(OC)c1OC (centres undefined)	-4%	0%
CCOc1ccccc1NC(=O)c1c(NC(=O)c2cccc(C)c2)sc2c1CCC2	1%	-27%
O=C(O)CSc1nc2ccc(NC(=O)COc3ccc(Cl)cc3)cc2s1	-6%	-3%
CCOc1ccc(C(=O)Nc2c(C(=O)Nc3ccccc3F)oc3ccccc23)cc1OCC	-17%	?

# New compounds follow.
SMILES	HTT prom inh	PMP22 txn prim
CCCCOC(=O)c1ccc(NC(=O)C2(c3cccs3)CCOCC2)cc1	-22%	-13%
CCc1ccccc1Nc1nc2cc(Cl)c(Cl)cc2nc1-n1nc(C)cc1C	-14%	?
CCc1ccccc1NC(=O)Cn1c(=O)ccc2cc(S(=O)(=O)N3CCCC3)ccc21	-24%	-25%
COc1ccc(NC(=O)c2ccc3c(SCC(=O)O)c4c(nc3c2)CCCC4)cc1OC	-14%	-67%
Cc1ccc(NC(=O)/C(C#N)=C/c2ccc(-c3ccc(Cl)c(C(=O)O)c3)o2)cc1C	23%	3%
COc1ccc(NC(=O)c2oc3ccccc3c2NC(=O)c2cc(=O)c3cc(Cl)ccc3o2)cc1	7%	?
COc1cc(OC)c(N(C)C(=O)c2sc3nc4n(c(=O)c3c2C)CCCC4)cc1Cl	-11%	-11%
CCOc1ccccc1CNC(=O)CSc1nnc(C)c2c(C)n(-c3ccccc3)nc12	-13%	-27%
COc1ccc(NC(=O)CNC(=O)Cn2c(C)cc3ccccc3c2=O)cc1OC	?	-28%
O=C(CSc1nccn1Cc1ccco1)Nc1ccc(OC(F)(F)F)cc1	24%	-6%

# Next records follow.
SMILES	HTT prom inh	PMP22 txn prim
Cc1c2cnn(CC(=O)NCCc3ccccc3)c(=O)c2c(C)n1Cc1ccccc1Cl	-3%	-23%
Cc1ccc(OCC(=O)Nc2cccc3ccc(C)nc23)c(C)c1	-1%	36%
Cc1ccccc1C1=CCN(c2ncc(NC(=O)c3ccc(Cl)cc3)cc2C(=O)O)CC1	1%	?
COc1ccc(C)cc1NS(=O)(=O)c1ccc(-c2cnc(C3CC3)o2)cc1	?	5.6µM*
COc1ccccc1OCC(O)CN1CCN(CC(=O)Nc2c(C)cccc2C)CC1 (centres undefined)	18%&1%	nt
COc1ccc(-n2c(SCC(=O)NCc3ccc(C)cc3)nc3n[nH]c(C)c3c2=N)cc1	-5%	-8%
COc1ccc(CC(=O)Nc2sc3c(c2C(=O)Nc2c(C)cccc2C)CCCCC3)cc1	-10%	?
Cc1ccc(C(=O)Nc2cccc3cccnc23)cc1Cl	58%[activator]	17%
CCN1c2cc(C)ccc2-n2cccc2C12CCN(C(=O)Nc1cc(OC)c(OC)c(OC)c1)CC2	?	-25%
CCc1ccc(-n2nc(C)c3c(C(=O)Nc4cc(OC)cc(OC)c4)cc(C)nc32)cc1	?	-15%

# Continued:
SMILES	HTT prom inh	PMP22 txn prim
CCOc1ccc(NC(=O)CCNS(=O)(=O)c2cccc3nonc23)cc1	-11%	1%
CCOc1ccc(OCC)c(NC(=O)c2cnc3c(-c4ccccc4)c(C)nn3c2C)c1	-13%	?
COc1ccccc1C(=O)CC1(O)C(=O)N(CC(N)=O)c2ccccc21 (centres undefined)	4%	2%
COc1ccc(-c2oc3cc(OC)ccc3c2C(=O)c2ccc(C#N)cc2)cc1	?	nt
COc1ccccc1N1CCN(S(=O)(=O)c2ccc(-n3cnnn3)cc2)CC1	-21%	-15%
CCCCN(CCCC)CCNC(=O)CN1C(=O)CSc2ccc(S(=O)(=O)N3CCOCC3)cc21	-19%	-6%
CCc1nnc2c(NCc3ccccc3)nc3ccccc3n12	-7%	0%
Cc1ccc(NC(=O)CN2C(=O)COc3ccc(S(=O)(=O)N4CCOCC4)cc32)c(Cl)c1	3%	3%
Cc1ccc(CN2C(=O)c3oc4ccc(C)cc4c(=O)c3C2c2ccc(O)cc2)cc1 (centres undefined)	0%	?
Cc1ccccc1NC(=O)C1CCN(S(=O)(=O)c2c(C)noc2/C=C/c2ccco2)CC1	-20%	-13%

# Carrying on:
SMILES	HTT prom inh	PMP22 txn prim
CCOc1ccc(NC(=O)c2ccc3c(c2)c(C)c(C)n3Cc2ccc(F)cc2)cc1	?	?
COc1ccc(C(=O)c2cn(Cc3ccc(F)cc3)c3ccc(C)cc3c2=O)cc1	?	?
CC(=O)Nc1ccc2nc(SCc3ccccc3)sc2c1	30%	-26%
O=C(Nc1ccc2oc(-c3cccc4c(Br)cccc34)nc2c1)c1cccc(Cl)c1	-9%	?

# The order is random, and some 2.6% of all compounds hit somewhere here.
